# Assay outcomes as filed in PubChem.
# Vaccinia mCherry: qHTS for Stage-Specific Inhibitors of Vaccinia Orthopoxvirus: mCherry Reporter Primary qHTS; Vaccinia virus mCherry reporter infection, fluorescence; about a quarter of the inactives have no number; actives 0.63% (n = 310,000); AID 720579, 2013; Potency, µM (titrated, usually from 36.5 µM), for the others: at the top dose activity change, negative = inhibition, usual class: inhibitors; active = well fitted inhibition curve with a large enough effect; inconclusive = small, poorly fitted or top-dose-only effect; inactive = no such curve, though single readings can be large or run the other way; tested in A549 cells; also: nearly all actives have a fitted effect of over 35% in size; inactives centre near -10
# Vaccinia Venus: qHTS for Stage-Specific Inhibitors of Vaccinia Orthopoxvirus: Venus Reporter Primary qHTS | Vaccinia virus Venus reporter expression, fluorescence | Potency, µM (titrated, usually from 36.5 µM), inactives show at the highest dose activity change, negative = inhibition, actives largely listed as inhibitors | actives 0.46% (n = 330,000) | AID 720580, 2013; active means well fitted inhibition curve with a large enough effect; inconclusive means small, poorly fitted or top-dose-only effect; inactive means no such curve, though single readings can be large or run the other way; tested in A549 cells; also: nearly all actives have a fitted effect of over 30% in size; inactives centre near -10
# * marks the source's active call; other numbers are inactive results; i = inactive; ? = inconclusive; · = no result given; [ ] = remark or other dose. % is scaled to controls: 0 for no effect and ±100 for the full control effect; potency is read from the fitted curve at half-maximal effect.
compound | Vaccinia mCherry | Vaccinia Venus
CCC(CC)c1nnc(NC(=O)CS(=O)(=O)c2ccc(C)cc2)s1 | i | 4%
COc1ccc(N2CCN(C(=O)c3cccc(NC4=NC5CS(=O)(=O)CC5S4)c3)CC2)cc1 (stereo not given) | -8%[7.34 µM] | -6%[7.34 µM]
COc1ccc(CNC(=O)COCc2cc(-c3cccs3)on2)cc1 | -18% | -6%
CCN(CC)C(=O)c1cc2c(=O)n3cccc(C)c3nc2s1 | -16% | 1%
Cc1ccc(S(=O)(=O)N(C)C)cc1NC(=O)COC(=O)COc1ccc2c(C)cc(=O)oc2c1 | i | -3%
Cc1nc2sc(C(c3ccccc3)N3CCOCC3)c(O)n2n1 (stereo not given) | i | -3%
O=C(NCc1ccccn1)c1ccc(CNS(=O)(=O)c2cccc(C(F)(F)F)c2)cc1 | i | -7%
O=C(CSc1nnc2ccc(-c3ccccn3)nn12)Nc1ccccc1 | -15% | -6%
CCCOc1ccc(-c2c(=O)n(O)c3ccccc3[n+]2[O-])cc1 | -16% | -12%
CC[n+]1c(/C=C/Nc2ccccc2)oc2ccc(OC)cc21 | -7% | 9%
O=C(NC1CCCCC1)C1CCCN1S(=O)(=O)c1ccc(F)cc1 (stereo not given) | i | -11%
CCOc1ccccc1NC(=O)c1c(NC(=O)c2ccccc2)sc2c1CCCC2 | -2% | 10%
COc1ccc2[nH]cc(CCNc3cc(-c4ccccc4C(F)(F)F)ncn3)c2c1 | -2% | 11%
O=C1/C(=C/c2cccs2)SC(=S)N1c1cccc(O)c1 | -13% | 8%
COc1ccc(OC)c(C=NN=Cc2cc(OC)ccc2OC)c1 | -1% | -21%
O=[N+]([O-])c1cc2c(cc1Br)CCN2 | -9% | 0%
Cc1nc(N2CCN(Cc3ccccc3)CC2)c(C#N)c2c1COC(C)(C)C2 | · | 5%
Cn1c(=O)c2c(nc(N/N=C/c3ccc(OC(=O)c4ccco4)cc3)n2Cc2ccc(F)cc2)n(C)c1=O | -12% | -9%
CCCCn1c(N)c(N(CCOC)C(=O)c2c(C)noc2C)c(=O)[nH]c1=O | i | -9%
CC(C)OC(=O)c1cc(C(=O)c2cc(Br)ccc2O)coc1=N | -15% | -5%
COC(=O)c1ccc(N2C(c3ccsc3)=Cc3cc4c(cc3C2CC(=O)c2ccco2)OCO4)cc1 (stereo not given) | 27% | -5%
Cc1ccccc1NC(=O)NNC(=O)COc1ccc2ccccc2c1 | -14% | 0%
Nc1[nH]c(C(=O)c2ccccc2)c(-c2ccc(Cl)cc2)c1C(=O)NCc1ccccc1 | 17% | -2%
Nc1nnn(CC(=O)N/N=C/c2cn[nH]c2-c2ccccc2)n1 | -8%[7.34 µM] | ?
O=C(N/N=C/c1cccc([N+](=O)[O-])c1)c1ccccc1-n1cccc1 | 1% | -4%

# The results go on:
compound | Vaccinia mCherry | Vaccinia Venus
Cn1nc(CC(=O)NCCN2C(=O)CSC2=O)c2ccccc2c1=O | -6% | 4%
COc1cc(NC(=S)Nc2ccc(OC(F)F)cc2)cc(OC)c1 | -24% | -12%
Cc1nn(Cc2ccccc2Cl)c(C)c1C(=O)OCC(=O)N1CC(C)OC(C)C1 (stereo not given) | -24% | -8%
Cc1c(Cl)cccc1N1CC(C)(C)C1=O | 0% | -16%
Cc1ccc(S(=O)(=O)N2CCOCC2)cc1C(=O)NC(=S)N(Cc1ccccc1)C(C)C | -19% | -4%
COC(=O)C[C@@H]1C[C@H]2c3cc(NS(=O)(=O)c4ccccc4)ccc3O[C@H]2[C@@H](CO)O1 | i | -10%
CCN1C(=O)[C@H]2[C@@H](c3ccc(-c4ccccc4)cc3)N[C@@](Cc3ccccc3)(C(=O)OC)[C@H]2C1=O | i | ?
COc1ccc(S(=O)(=O)N2CCCCCC2)cc1NC(=O)Cc1cc(OC)c(OC)c(OC)c1 | -2% | -18%
CC(=O)NC(c1ccc(F)c(F)c1)c1nc(-c2cccs2)cs1 (stereo not given) | i | -19%
NCCCN(Cc1ccc(Cl)c(Cl)c1)c1ccc(Br)cn1 | -4% | ?
CCC(=O)N1CCc2cc(S(=O)(=O)CCC(=O)Nc3ccc(CC)cc3)ccc21 | -26% | -18%
CN1C(=O)[C@H]2[C@@H](c3ccc(F)cc3)N3C(=O)c4ccccc4NC(=O)[C@@]3(C)[C@H]2C1=O | i | -17%
CCCCn1c(N)c(N(CCOC)C(=O)c2cccc(N3C(=O)c4ccccc4C3=O)c2)c(=O)[nH]c1=O | -16% | -15%
COc1ccccc1NC(=O)CSc1nc(=O)n(CCN(C)C)c2c1CCCC2 | i | -12%
COCCCNC(=O)c1cc(-c2cccnc2)nc2ccc(S(=O)(=O)N3CCCCCC3)cc12 | i | -12%
CC(C)C(O)(C#CCN1CCCCC1)C(C)C | -12% | -1%
O=C(COc1cccc2c1CCN(Cc1ccc(Br)cc1)C2=O)NCc1ccco1 | i | -14%
Cc1ccc2oc(=O)c3cnn(CC(=O)NCCN(C)C)c3c2c1 | -14% | -5%
CN(C)/C=N/C(=S)Nc1ccc(Cl)c(Cl)c1 | ? | ?
O=S1(=O)CCC(NS(=O)(=O)/C=C/c2ccccc2)C1 (stereo not given) | i | -5%
CCn1nnnc1SCC(=O)Nc1ccc(F)cc1 | -6% | -7%
Cc1oc(C(=O)O)cc1COc1cccc2cccnc12 | -19% | -7%
Cc1nc(N2CCOCC2)nc(N2CCN(c3ccccc3)CC2)c1[N+](=O)[O-] | · | -19%
Cc1ccc(-n2c(SCC(=O)Nc3cccc(C)c3)nc3c(oc4ccccc43)c2=O)cc1 | -13% | -8%
Cc1ccccc1NC(=O)Cn1cc(C(=O)C2CC2)c2ccccc21 | -24% | -6%

# (cont.)
compound | Vaccinia mCherry | Vaccinia Venus
O=C(NCc1ccccc1C(F)(F)F)c1cccc2c1C(=O)c1ccc(N3CCOCC3)cc1S2(=O)=O | -13% | ?
Cc1ccc(NC(=O)C2CCN(C(=O)c3sc4nc[nH]c(=O)c4c3C)CC2)cc1F | -18% | -2%
O=C(Nc1ccc(F)c([N+](=O)[O-])c1)C1CC(=O)N(Cc2ccccc2)C1 (stereo not given) | -13% | -5%
COc1ccccc1N1CCN(C(=O)c2cc(-c3ccco3)on2)CC1 | -22% | -6%
O=Cc1ccc(-c2nc3ccccc3s2)o1 | i | -1%
COc1ccc(CN2CCN(C(=O)c3cccnc3)CC2)cc1Br | i | -6%
O=[N+]([O-])c1cc([N+](=O)[O-])c(Oc2cc(F)cc(F)c2)cc1NN1CCCCC1 | ? | ?
Cc1cccc(CNC(=O)Nc2nnc([C@H]3C[C@H](O)[C@@H](CO)O3)s2)c1 | -9% | -3%
Nc1ncnc(Nc2ccccn2)c1[N+](=O)[O-] | -16% | -27%
COC(=O)C1=NN(c2cccc(C)c2)C2C(=O)N(c3ccccc3OC)C(=O)C12 (stereo not given) | -14% | 7%
Cc1noc(C)c1NC(=O)Nc1ccc2c(c1)C(=O)N([C@H](C)CO)C[C@H](C)[C@H](CN(C)C(=O)NC1CCCCC1)OCCCC[C@@H](C)O2 | i | -3%
O=C(CCc1cn(Cc2ccccc2F)c2ccccc12)NCc1ccc(Cl)cc1 | -12% | -11%
O=C(c1cc2cc3ccc(Cl)cc3nc2o1)N1CCN(c2cccc(Cl)c2)CC1 | -5% | -3%
CSc1ncccc1-c1nc2ccccc2[nH]1 | -10% | -8%
COc1cc2c(cc1NC(=O)COc1ccc(Cl)cc1Br)oc1ccccc12 | -10% | -13%
Cc1cccc2cc(CN(Cc3cccs3)C(=S)NCC3CCCO3)c(=O)[nH]c12 (stereo not given) | i | -12%
Cc1ccc(S(=O)(=O)N(CC(=O)Nc2ccc(Cl)cc2Cl)c2ccccc2C)cc1 | -20% | -12%
COc1cc(-c2ccc(N3C(c4ccsc4)=Cc4ccccc4C3CC(C)=O)cc2)cc(OC)c1OC (stereo not given) | -3% | 0%
CN(C)S(=O)(=O)N1CCC(Oc2ccc(C(=O)N3CCCCCCC3)cc2)CC1 | -23% | -24%
Cn1c(=O)c2c(nc(SCCN3CCOCC3)n2Cc2ccc(Cl)cc2)n(C)c1=O | i | -13%
C[C@H]1CCCCO[C@@H](CN(C)S(=O)(=O)c2ccc(F)cc2)[C@@H](C)CN([C@@H](C)CO)C(=O)c2cc(NC(=O)Nc3ccc4c(c3)OCO4)ccc2O1 | -18% | -25%
Cc1cc(NC(=O)CN2CCCC(C)C2)no1 (stereo not given) | -12% | -9%
Cc1ccc(C(C(=O)NC2CCCCC2)N(CCC(C)C)C(=O)CNC(=O)c2ccco2)o1 (stereo not given) | i | -21%
O=C(c1ccc(-c2cccc(C(F)(F)F)c2)o1)N1CCN(c2ccccc2)CC1 | -11% | 0%
CCN1C(=O)/C(=C/N2CC(C)CC(C)C2)SC1=S (stereo not given) | 2% | -2%

# Next section; it opens with the seven that closed the last part.
compound | Vaccinia mCherry | Vaccinia Venus
CN(C)S(=O)(=O)N1CCC(Oc2ccc(C(=O)N3CCCCCCC3)cc2)CC1 | -23% | -24%
Cn1c(=O)c2c(nc(SCCN3CCOCC3)n2Cc2ccc(Cl)cc2)n(C)c1=O | i | -13%
C[C@H]1CCCCO[C@@H](CN(C)S(=O)(=O)c2ccc(F)cc2)[C@@H](C)CN([C@@H](C)CO)C(=O)c2cc(NC(=O)Nc3ccc4c(c3)OCO4)ccc2O1 | -18% | -25%
Cc1cc(NC(=O)CN2CCCC(C)C2)no1 (stereo not given) | -12% | -9%
Cc1ccc(C(C(=O)NC2CCCCC2)N(CCC(C)C)C(=O)CNC(=O)c2ccco2)o1 (stereo not given) | i | -21%
O=C(c1ccc(-c2cccc(C(F)(F)F)c2)o1)N1CCN(c2ccccc2)CC1 | -11% | 0%
CCN1C(=O)/C(=C/N2CC(C)CC(C)C2)SC1=S (stereo not given) | 2% | -2%
COC(=O)c1ccc(CNC(=O)COC(=O)CCN2C(=O)C3CC=CCC3C2=O)cc1 (stereo not given) | -26% | 0%
Cc1c2cnn(CC(=O)O)c(=O)c2c(C)n1Cc1cccc(Cl)c1 | 4% | -11%
CC(=O)c1cccc(CN2CCCC(C(=O)Nc3cccc(-n4cccn4)c3)C2)c1 (stereo not given) | -15% | -8%
COc1ccc(S(=O)(=O)N2CCOCC2)cc1C(=O)Nc1ccon1 | · | -17%
CN(C)CCCN(Cc1ccccc1)C(=S)Nc1ccc(F)c(Cl)c1 | -22% | -30%
Cc1nnc(N2CCOCC2)c2nn(-c3ccccc3)c(C)c12 | -14% | -16%
Cc1ccccc1-c1nc(CN2CCCC2c2ccc(F)cc2)c(C)o1 (stereo not given) | -1% | 1%
CCOC(=O)c1cccc(NC(=O)C(CC(C)C)N2Cc3ccccc3C2=O)c1 (stereo not given) | -15% | -8%
Cc1cc(C(=O)CN2C(=O)C(=O)N(Cc3ccccc3)C2=O)c(C)n1-c1ccc2c(c1)OCCO2 | -1% | -3%
COc1cccc(COC(=O)CCNC(=O)c2ccc(Br)cc2)c1OC | -14% | -10%

# In the list so far, 2 contain a COOH group:
compound | Vaccinia mCherry | Vaccinia Venus
Cc1oc(C(=O)O)cc1COc1cccc2cccnc12 | -19% | -7%
Cc1c2cnn(CC(=O)O)c(=O)c2c(C)n1Cc1cccc(Cl)c1 | 4% | -11%
